Source: PubChem BioAssay
StopGo reporter – FMDV 2A StopGo reporter, luciferase signal. Potency, µM (titrated, usually from 57.9 µM), without a hit: at the top dose signal change, negative = less light. human cells with a luciferase reporter of 2A StopGo recoding; control for the full effect not named in the record. 1.2% of 410,000 active; active = well fitted falling curve with a large enough effect; inconclusive = small, poorly fitted or top-dose-only effect; inactive = no such curve, though single readings can be large or run the other way; tested in HEK293T cells; also: % is scaled to controls: 0 for no effect and ±100 for the full control effect; nearly all actives have a fitted effect of over 45% in size; luciferase light after 4 h
MARV entry inh – inhibitors of Marburg virus binding or cell entry. Marburg virus pseudotyped entry inhibition, cell reporter; control for the full effect not named in the record; about a third of the inactives were read at about 46 µM. Potency, µM (doses to about 37.8 µM), for the others: top-dose activity change, negative = inhibition, hits mostly inhibitors. 1.8% of 300,000 active. AID 540276; active = well fitted inhibition curve with a large enough effect; inconclusive = small, poorly fitted or top-dose-only effect, or effect the other way; inactive = flat fitted curve, though single readings scatter; tested in HEK293 cells; about a fifth of its hits are not listed in these tables; also: % is scaled to controls: 0 for no effect and ±100 for the full control effect; luciferase read-out
Cruzain Triton – inhibitors of Trypanosoma cruzi cruzain with detergent. Potency, µM, without a hit: max response, negative = inhibition, usual class: inhibitors. 0.43% of 200,000 active. purified cruzain, Z-FR-AMC fluorescence, 0.01% Triton. AID 1478. P25779; active = well fitted curve in the direction sought with a large enough effect; inconclusive = small, poorly fitted or top-dose-only effect, or another doubt; inactive = no such curve, though single readings can be large; an effect the other way counts as inactive or inconclusive;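 also: plate controls were neutral wells for no effect and buffer without enzyme for full effect; nearly all actives have a fitted effect of over 40% in size; top concentration of the series not given in the record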
Target sequence (P25779 123-467 limits assumed): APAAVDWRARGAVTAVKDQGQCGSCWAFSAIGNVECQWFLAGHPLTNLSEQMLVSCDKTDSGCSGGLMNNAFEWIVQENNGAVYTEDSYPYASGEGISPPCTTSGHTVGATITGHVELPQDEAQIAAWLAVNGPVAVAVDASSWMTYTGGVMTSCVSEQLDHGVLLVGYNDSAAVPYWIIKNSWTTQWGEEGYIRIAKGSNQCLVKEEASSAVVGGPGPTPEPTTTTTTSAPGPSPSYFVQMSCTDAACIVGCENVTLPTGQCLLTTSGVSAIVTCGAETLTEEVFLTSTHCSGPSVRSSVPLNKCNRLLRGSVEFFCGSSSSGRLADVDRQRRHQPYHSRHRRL
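Compounds were screened in titration against cruzain (1.5 nM) with 0.01% Triton X-100 to counter colloidal aggregation. Activity was the AMC fluorescence increase over 60 s after adding 2 uM Z-FR-AMC at pH 5.5.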
Cruzain inh noDet – inhibitors of Trypanosoma cruzi cruzain without detergent; purified cruzain, Z-FR-AMC fluorescence, no detergent; P25779; Potency, µM, without a hit: max response, negative = inhibition, actives largely listed as inhibitors; 2.3% of 200,000 active; AID 1476; active = well fitted curve in the direction sought with a large enough effect; inconclusive = small, poorly fitted or top-dose-only effect, or another doubt; inactive = no such curve, though single readings can be large; an effect the other way counts as inactive or inconclusive;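 also: plate controls were enzyme without inhibitor for no effect and buffer without enzyme for full effect; nearly all actives have a fitted effect of over 40% in size; top concentration of the series not given in the record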
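Purified cruzain at 1.5 nM, pre-incubated 15 min with compound at room temperature in 100 mM sodium acetate pH 5.5, 5 mM DTT, 0.00005% Triton X-100. Reaction started with 2 uM Z-FR-AMC; AMC fluorescence increase over 60 s gives rate.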
RE007 growth inh – less growth of the S. pombe RE007 Vpr strain; S. pombe RE007 Vpr strain, BacTiter-Glo ATP luminescence, 24 h; control for the full effect not named in the record; 0.21% of 360,000 active; Potency, µM (top dose mostly 92.2 µM), for inactives: at the highest dose activity change, negative = less growth; active = well fitted falling curve with a large enough effect; inconclusive = small, poorly fitted or top-dose-only effect; inactive = no such curve, though single readings can be large or run the other way;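 also: % is scaled to controls: 0 for no effect and ±100 for the full control effect; nearly all actives have a fitted effect of over 50% in size; the assay follows cell death caused by Vpr and the record does not say whether a fall means rescue or toxicity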
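Fission yeast strain RE007, carrying one chromosomally integrated HIV-1 vpr copy, was seeded at OD 0.01 in PMG+AL medium with 23 nL pinned compound. After 24 h at 30 °C and 99% humidity, viability was read by BacTiter-Glo luminescence.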
Lassa entry inh – Lassa virus entry inhibition. 1.2% of 300,000 active. Potency, µM (titrated, usually from 37.9 µM), without a hit: top-dose activity change, negative = inhibition, actives largely listed as inhibitors. Lassa virus pseudotype entry inhibition, cell reporter; control for the full effect not named in the record. AID 540256; active means well fitted inhibition curve with a large enough effect; inconclusive means small, poorly fitted or top-dose-only effect, or effect the other way; inactive means flat fitted curve, though single readings scatter; tested in HEK293 cells; also: % is scaled to controls: 0 for no effect and ±100 for the full control effect; nearly all actives have a fitted effect of over 50% in size; luciferase read-out
NS1 inh – blocks influenza NS1 protein function | S. cerevisiae slowed by influenza A NS1, growth recovery by OD600 | Potency, µM (doses to about 46.1 µM), for the others: at the top dose activity, positive = more growth | 0.4% of 270,000 active; also: actives are rising curves; nearly all actives have a fitted effect of over 50% in size
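S. cerevisiae expressing influenza A NS1, grown in glucose, washed, then diluted 1:100 into pH 6.0 -URA galactose medium with 23 nl compound. Growth recovery read as OD600; NS1-free strain serves as control.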
SARS PLpro yeast – inhibitors of SARS-CoV papain-like protease in yeast; S. cerevisiae expressing SARS-CoV PLpro, growth rescue; control for the full effect not named in the record; Potency, µM (doses to about 32.9 µM), without a hit: at the top dose activity, positive = growth rescue; 0.19% of 330,000 active; AID 485353; also: 0% is about no effect; nearly all actives have a fitted effect of over 55% in size; growth read by luminescence after 48 h
* hit, by the source's call; ? = inconclusive; . = not tested or not shown; & = joins results of further samples; [ ] = dose if it differs, or a comment. Unless noted, calls follow the shape of the dose curve; as a rule, active means well fitted rising curve with a large enough effect; inconclusive means small, poorly fitted or top-dose-only effect; inactive means no such curve, though single readings can be large or run the other way. Potency is read from the fitted curve at half-maximal effect.

SMILES	StopGo reporter	MARV entry inh	Cruzain Triton	Cruzain inh noDet	RE007 growth inh	Lassa entry inh	NS1 inh	SARS PLpro yeast
O=C(CCCCCN1C(=O)c2ccccc2C1=O)Nc1cccc(O)c1	?	-2%	.	.	4%	1%	9%	3%
Cc1cc(OCC(=O)Nc2ccncc2)ccc1[N+](=O)[O-]	?	-5%[46.1 µM]	.	.	-5%	-28%	.	0%
CCc1c(C)c(C#N)c2nc3ccccc3n2c1NCCN(C)C	-7%	-6%	2.6%	-2%	8%	1%	-56%	-9%
COc1ccccc1CN1CCN(C(CC(C)C)c2nnnn2Cc2cccs2)CC1 (configuration not stated)	?	?	0.4%	3%	2%	-2%	-9%	5%
CCn1c(SCC(=O)NC2CCCCC2)nnc1-c1ccccn1	-11%	.	.	.	-6%	.	8%	3.5µM*
CCOc1ccc(NC(=O)C2CCCN(c3nnc(C)c4c(C)n(-c5ccccc5)nc34)C2)cc1 (configuration not stated)	-4%	.	-2.4%	5%	.	-10%[46.1 µM]	.	.
Nc1cccnc1Oc1ccccc1F	14%	7%	.	.	2%	-2%	6%	0%
CCCCC1CCC(C(=O)Nc2ccccc2N2CCOCC2)CC1 (configuration not stated)	-20%	5%	.	.	-2%	.	.	-2%
COc1cccc(NC(=S)NCCC(c2ccccc2)c2ccccc2)c1	4%	?	-3.3%	-9%	22%	?	11%	27%
CSc1ccccc1C(=O)Nc1cccc(N(C)S(C)(=O)=O)c1	.	15%	3.0%	-8%	-17%	?	-22%	2%
Cn1c(-c2ccc(F)cc2)cnc1NCc1cc2c(cc1[N+](=O)[O-])OCO2	5%	?	-4.4%	-6%	-12%	14%	?	-16%
O=C(/C=C/c1ccco1)NC(=S)Nc1ccc(N2CCOCC2)c(Cl)c1	-9%	-15%	-3.7%	-2%	-5%	?	10%	4%
CCOC(=O)c1c(C)nc2ccccc2c1-c1ccccc1	-15%	-1%	-11%	-11%	2%	4%	-31%	10%
COc1ccc(Br)cc1CNCc1c(C(=O)O)c(C)n(Cc2ccccc2C)c1C	1%	-20%[46.1 µM]	-3.6%	5%	.	-2%[46.1 µM]	.	.
COc1ccc(-n2nnnc2/C(=C/N(C)C)C(=O)c2ccccc2)cc1	9%	?	.	.	0%	-8%	2%	0%
O=C(COC(=O)c1cccc(OC(F)F)c1)Nc1ncccn1	-28%	24%	.	.	3%	2%	.	5%
CCOc1ccc(Br)cc1CC(=O)O	-17%	11%&11%	.	.	10%	2%	.	.
COc1ccc(CC(=O)Nc2cc(C)on2)cc1OC	-17%	-2%	0.0%	0%	-6%	16%	5%	-3%
c1ccc2c(c1)-c1cccc3cccc-2c13	-3%	.	-16%	-19%	-4%	.	.	5%
Cc1ccccc1NC(=O)CCCCC(=O)Nc1ccccc1C	-15%	8%	.	.	8%	?	2%	4%
CCOCCOC(=O)Cn1cnc2scc(-c3ccc(C)cc3)c2c1=O	-13%	.	.	.	-1%	.	13%	-4%
c1ccc(-n2cc(CN3CCCC(CN4CCCC4)C3)c(-c3ccc4c(c3)OCO4)n2)cc1 (configuration not stated)	-8%	.	.	.	6%	.	5%	0%
Cc1oc(-c2ccccc2F)nc1CS(=O)(=O)CC(=O)NCCN1CCCC1	-11%	-16%[46.1 µM]	.	.	-19%	5%[46.1 µM]	5%	6%
CCCCCn1c(=O)[nH]c2cc(C(=O)NCCN3CCCCC3C)ccc2c1=O (configuration not stated)	-7%	3%[46.1 µM]	.	.	-5%	?	0%	5%
CCC(C)(C(=O)NC1CCCCC1)N(CC1CCCO1)C(=O)CNC(=O)c1ccccc1 (configuration not stated)	-5%	10%	6.8%	7%	-20%	?	15%	13%[6.58 µM]
CCC(C)Nc1ncnc2c1cnn2-c1ccc(F)cc1 (configuration not stated)	-4%	.	0.8%	-2%	.	-1%[46.1 µM]	.	.
O=C(Nc1cnn(Cc2ccc(Cl)cc2Cl)c1)c1noc2c1CCCC2	0%	.	-12%	-7%	-4%	.	.	-52%
CC1CCC/C=C/C(=O)c2c(O)cc(O)cc2CC(=O)O1 (configuration not stated)	32µM*	.	.	.	4%	.	0%	1%
CC(=O)N1CCN(c2ccc(NC(=O)c3ccc4ccccc4c3)cc2)CC1	30%[activator]	8%[46.1 µM]	.	.	5%	?	-4%	1%
C/C(=N\NC(=O)c1cccc(Br)c1)c1ccccn1	27%	4.5µM*	.	.	?	?	-74%	?
CCN1CCCC1CNC(=O)CN(C)S(=O)(=O)c1ccc(Cl)cc1 (configuration not stated)	1%	27%[46.1 µM]	.	.	-20%	0%[46.1 µM]	14%	-1%
COc1ccc(C(=O)Cn2c(=O)c(CCC(=O)O)nn3c4ccccc4nc23)cc1OC	97%[activator]	6%	-3.7%	14%	15%	10%	9%	-1%
Cc1cc(S(=O)(=O)NCc2ccccn2)c(Cl)cc1Cl	41%[activator]	.	.	.	-13%	.	-21%	-3%
CCCCn1c(N)c(N(CCOC)C(=O)CC2CCCCC2)c(=O)[nH]c1=O	-11%	1%	.	.	0%	0%	.	.
COc1cccc(NC(=O)CN(C)C(=O)c2cn(-c3ccccc3)nc2-c2cccs2)c1	-26%	?	.	.	-3%	?	.	-4%
CC1CCCCN1C(=O)Cn1cc(C#N)c2ccccc21 (configuration not stated)	-4%	6%	0.6%	7%	13%	2%	6%	-14%
Cc1cccc(NS(=O)(=O)c2ccc3c(c2)CCN3C(=O)CCC(=O)O)c1	24%	4%[46.1 µM]	.	.	3%	20%[46.1 µM]	2%	0%
Cc1ccc(-n2ncc3c(NC4CCCC4)ncnc32)cc1	-82%	.	-1.2%	-4%	.	?	.	.
Cc1ccc(C(=O)NNC(=S)Nc2cccc3ccccc23)s1	37%[activator]	0%	-1.2%	2%	-16%	17%	4%	1%
CC(NC(=O)c1cc(-c2ccc(Cl)cc2)on1)c1ccccc1 (configuration not stated)	32%[activator]	8%[46.1 µM]	5.3%	-6%	.	19%[46.1 µM]	.	.
COC(CNS(=O)(=O)c1ccc(Cl)cc1)c1ccccc1 (configuration not stated)	0%	-4%[46.1 µM]	.	.	8%	-5%[46.1 µM]	14%	24%
O=c1c2ccccc2cnn1Cc1n[nH]c(=S)n1-c1ccc(Cl)cc1Cl	.	3%	1.5%	-4%	.	8%	3%	2%
COc1nc(OC)nc(N(C)CCO)n1	-15%	0%	1.7%	12%	10%	6%	4%	4%
Cc1ccc(NC(=O)C2CC(=O)N(c3ccc4c(c3)OCCO4)C2)cc1S(=O)(=O)N(C)C (configuration not stated)	-17%	-23%	.	.	0%	?	.	-3%
CN(C)C(=O)CSc1nnc(-c2cccs2)n1-c1ccccc1	-5%	-4%[46.1 µM]	.	.	0%	2%	-45%	5%
O=C(CCOc1ccccc1)N(Cc1cccnc1)c1nc2c(F)cc(F)cc2s1	-16%	.	-10%	-3%	.	-8%[46.1 µM]	.	.
CCOc1ccc(NC(=O)c2nn(C)c(C(=O)Nc3ccc(OCC)cc3)c2[N+](=O)[O-])cc1	-6%	2%	.	.	4%	8%	5%	3%
Cc1nonc1-c1csc(N)n1	27%	3%	.	.	-7%	0%	-3%	-7%
CC1CCN(c2ccc(NC(=O)c3ccc([N+](=O)[O-])o3)cc2)CC1	-15%	?	.	.	-26%	?	.	-18%
CCCCCCNC(=O)c1cc(S(=O)(=O)N2CCc3ccccc32)ccc1F	-14%	.	.	.	12%	.	2%	-2%
CCN1C(=O)C(CC(=O)Nc2ccc(OC)cc2)N(Cc2ccco2)C1=S (configuration not stated)	-10%	9%	5.3%	9%	5%	-3%	-8%	15%
Cc1nnc(SCC(=O)Nc2ccc(Br)cn2)[nH]c1=O	-13%	8%	2.9%	-5%	14%	16%	-13%	2%
COc1ccc(CNC/C=C/c2ccccc2)cc1	-16%	.	.	.	14%	.	7%	10%
Clc1cc(CSc2ccccc2)nc(-c2ccccc2)n1	1%	-3%	-7.3%	-9%	-1%	-1%	-7%	2%
COc1ccc(C2c3sc(=O)[nH]c3SCC2C(N)=O)cc1 (configuration not stated)	50%[activator]	.	.	.	5%	.	3%	-1%
Cc1ccc(S(=O)(=O)NCCNS(=O)(=O)c2ccc(C)cc2)cc1	48%[activator]	-1%	.	.	3%	-12%	4%	1%
COc1ccc(C)c2sc(N(Cc3cccnc3)C(=O)C3CCCCC3)nc12	-6%	.	-7.2%	?	.	2%[46.1 µM]	.	.
CCOc1ccc(CCN2C(=O)C3C4CCC(O4)C3C2=O)cc1OCC (configuration not stated)	-5%	3%	.	.	26%	13%	.	1%
O=C(COC(=O)[C@H](Cc1ccccc1)NS(=O)(=O)c1ccccc1F)NC1CCCCC1	-1%	20%	-25%	-14%	-10%	21%	1%	14%
COc1ccc2c(c1OC)C(=O)OC2CC(=O)c1ccc(N(C)C)cc1 (configuration not stated)	-26%	4%	-10%	-10%	-9%	14%	-15%	-2%
(more compounds)
SMILES	StopGo reporter	MARV entry inh	Cruzain Triton	Cruzain inh noDet	RE007 growth inh	Lassa entry inh	NS1 inh	SARS PLpro yeast
Clc1ccc(-c2nn3c(C4COc5ccccc5O4)nnc3s2)cc1 (configuration not stated)	19%	4%	-5.6%	-4%	-17%	6.5µM*	-87%	1%
CCCOc1ccc(C2C(=O)N(C3CCCCC3)CC(=O)N2CCc2ccccc2)cc1OC (configuration not stated)	-31%	.	1.1%	6%	.	-5%[46.1 µM]	.	.
CCOc1ccc(/C=C/c2nc(C#N)c(NCc3ccc(OC)cc3)o2)cc1	-21%	6%[46.1 µM]	-1.8%	6%	.	?	.	.
Cc1ccccc1C1NC(=S)NC2=C1C(=O)CC(C)(C)C2 (configuration not stated)	5%	?	.	.	-6%	-4%	.	-4%
COc1ccc(S(=O)(=O)Nc2cc(C(=O)NC3CCCCCC3)ccc2N2CCOCC2)cc1	41%[activator]	2%	-2.6%	?	14%	?	10µM*	14%
COc1ccc(OCc2cc(C(=O)NCCN3CCCC(O)C3)no2)c(Cl)c1 (configuration not stated)	-2%	-29%[46.1 µM]	.	.	-11%	23%[46.1 µM]	11%	-6%
CCc1cc(C(=O)NNC(=S)NCc2ccccc2)cs1	34%[activator]	16%	3.1%	2%	14%	0%	5%	3%
